# Source: PubChem
# UCH37 DUB inh – human UCH37 deubiquitinating enzyme inhibition; AID 588478; actives 0.33% (n = 330,000); inhibition, % (no concentration beside the values); purified proteasome/UCH37, Ub-AMC cleavage fluorescence;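 active = mean of two replicates above 20%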;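 note: 0% = compound-free wells with enzyme and 100% = wells lacking proteasome; stock transfer was 100 nL into about 20 µL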
# Target sequence (Q9Y5K5 whole entry, looked up): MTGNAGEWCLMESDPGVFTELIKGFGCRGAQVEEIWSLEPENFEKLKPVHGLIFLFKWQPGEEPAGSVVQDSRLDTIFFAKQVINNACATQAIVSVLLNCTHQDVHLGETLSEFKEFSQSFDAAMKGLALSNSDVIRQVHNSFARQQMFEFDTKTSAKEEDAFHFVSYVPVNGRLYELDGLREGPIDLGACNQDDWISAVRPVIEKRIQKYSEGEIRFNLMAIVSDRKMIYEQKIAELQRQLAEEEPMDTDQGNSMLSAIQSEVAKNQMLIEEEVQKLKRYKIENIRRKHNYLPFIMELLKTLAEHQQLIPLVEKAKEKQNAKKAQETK
#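 assay system = human UCH37 enzyme supplied as purified proteasome complex | amount = proteasome at 0.15 nM in the dispensed enzyme solution | schedule = 30 min compound-proteasome preincubation then 25 min substrate reaction, room temperature | measured by = fluorescence, ex 355 nm, em 460 nm | benchmarks = no-proteasome wells (full inhibition) and compound-free wells (no inhibition)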
# MLL AF4-AF9 inh – inhibitors of human MLL-AF4/AF9 interaction. AlphaScreen, biotin-AF4 peptide binding to FLAG-AF9. inhibition, % at 10 µM. actives 0.47% (n = 350,000);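 active = every replicate reaching a set inhibition limit, whatever the replicate mean, cut at about 25% in these data; inconclusive = mean inhibition reaches that limit but some replicates miss it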;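 note: 0% = plate neutral control median and 100% = total signal loss; the record names both 10 and 1 µM as test concentration; the first replicate is given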
# Vif TR-FRET – HIV-1 Vif–A3G interaction blockers – biochemical, TR-FRET, GST-Vif 1-94, biotin-A3G peptide, dose response retest, primary screen (AID 1117319). TR-FRET GST-Vif / biotin-A3G peptide binding; higher % means a stronger effect; test concentration not given here; strong numbers were not always called active. inhibition, %; hits with a dose series show IC50 in µM. actives 0.57% (n = 260,000);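 active = above the screen mean plus three standard deviations and confirmed in dose response; inconclusive = results disagree or hit not tested in dose response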;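 note: Vif residues 1-94 fused to GST binding biotinylated APOBEC3G peptide 110-148; 0% = full assay without inhibitor and 100% = GST in place of GST-Vif; retest series ran down from 100 µM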
# FGF22 binding – shifts melting point of recombinant human FGF22 | recombinant FGF22 thermal shift, SYPRO orange fluorescence; percent of sucrose octasulfate shift, DMSO zero | calls only at 9.99 µM | actives 1.5% (n = 340,000);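 active = melting point raised past a set limit in the mean and every replicate; inconclusive = no clear call; three in four hits are not shown here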
# Target sequence (Q9HCT0 whole entry, looked up): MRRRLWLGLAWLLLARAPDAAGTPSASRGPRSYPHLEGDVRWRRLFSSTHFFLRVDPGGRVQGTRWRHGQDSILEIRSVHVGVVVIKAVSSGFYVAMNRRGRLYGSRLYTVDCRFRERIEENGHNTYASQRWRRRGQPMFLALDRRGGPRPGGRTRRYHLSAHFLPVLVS
# E coli growth – E. coli growth inhibition | AID 1053175 | Escherichia coli growth, OD600, 23 h; stronger effect = lower value | actives 0.21% (n = 330,000) | OD600 absorbance (concentration not given with the values);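 active = OD600 absorbance below the run mean of sample wells minus 3.6 SD, in any replicate, cut at about 0.56 in these data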;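 note: stock transfer was 300 nL into about 60 µL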
# RanGTP-Imp inh – disruptors of Ran-importin-beta complex formation – biochemical, FRET, CFP-Ran, YFP-importin-beta, homogeneous, primary screen; cell-free CFP-Ran/YFP-importin-beta FRET ratio; inhibition, % (no concentration beside the values); actives 1.1% (n = 300,000);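 active = most replicates above 15%; inconclusive = exactly half above 15%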;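 note: 0% = DMSO wells and 100% = Ran loaded with GDP instead of GTP; wells of about 40 µL received 100 nL stock; the first replicate is given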
# HNF4A DNA FP – change in binding of human HNF4 alpha to DNA | HNF4a-FITC DNA binding, fluorescence polarization, 1 h | actives 0.3% (n = 360,000) | P41235 | activity change, % at 10 µM; in the data active = activity change above about 30%, passing the limit was not always enough;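 note: controls were the assay level and a saturating level of protein; the project sought stronger binding though the title names inhibitors; some compounds called inactive have numbers as strong as hits; positive values seem to mean higher polarization but the record does not say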
# Target sequence (P41235 whole entry, looked up): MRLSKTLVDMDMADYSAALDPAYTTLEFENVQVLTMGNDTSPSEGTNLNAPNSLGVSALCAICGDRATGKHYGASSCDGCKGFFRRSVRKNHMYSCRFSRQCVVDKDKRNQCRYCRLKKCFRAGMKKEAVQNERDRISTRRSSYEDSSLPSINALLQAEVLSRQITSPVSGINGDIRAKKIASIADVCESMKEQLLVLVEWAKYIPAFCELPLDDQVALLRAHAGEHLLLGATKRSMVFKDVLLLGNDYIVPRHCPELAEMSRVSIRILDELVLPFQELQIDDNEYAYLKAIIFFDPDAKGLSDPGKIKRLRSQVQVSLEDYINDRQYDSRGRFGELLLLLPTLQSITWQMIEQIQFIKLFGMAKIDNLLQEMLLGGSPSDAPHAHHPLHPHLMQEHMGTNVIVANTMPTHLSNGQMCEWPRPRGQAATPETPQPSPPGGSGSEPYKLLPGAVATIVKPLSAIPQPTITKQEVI
# The depositor's hits bear a star; i = inactive; u = inconclusive; x = not tested or not shown; & = joins results of further samples.
canonical_smiles	UCH37 DUB inh	MLL AF4-AF9 inh	Vif TR-FRET	FGF22 binding	E coli growth	RanGTP-Imp inh	HNF4A DNA FP
CNC(=O)[C@@]1(C)C=C[C@@H](Cc2ccccc2)N1C(=O)OC	1.1	x	x	x	x	-2.9	0.2
CCOC(=O)C1=CCC(c2ccccc2C(F)(F)F)N(S(=O)(=O)c2ccc(C)cc2)C1 (stereo not given)	x	0.2	x	i	x	x	0.0
CC1CC(C)CN(CC(C)(C)NS(=O)(=O)c2ccccc2)C1 (stereo not given)	1.0	x	18%	x	0.6	-1.5	-2.0
Cc1sc2nc(CSCC(=O)NC3CCCCC3)[nH]c(=O)c2c1C	-1.8	-0.9	12%	i	0.65	1.9	4.4
CCOC(=O)C1=C(COc2ccccc2)NC(=O)NC1c1cccc([N+](=O)[O-])c1 (stereo not given)	0.0	1.0	x	i	0.7	3.8	6.0
Cc1ccc(NC(=S)Nc2cccc(-c3n[nH]c(=S)o3)c2)cc1	-2.9	-5.7	21%	x	0.65	-0.4	-5.6
COc1ccc2c(Cl)c(C(=O)NCCCn3ccnc3)sc2c1	1.2	x	-4%	x	0.68	-0.6	2.9
CCN(CC)C(=O)C(=O)c1cccn1-c1cccc(-n2cccc2C(=O)C(=O)N(CC)CC)c1C#N	5.0	x	19%	x	0.69	-1.0	-0.1
COCCOc1cnn(-c2cc(Oc3ccc(C)cc3)ncn2)c(=O)c1Cl	-3.5	x	-1%	x	0.75	-2.7	1.1
CCCCCCn1c(=O)n2n(c1=O)C[C@]1(OC(=O)NCc3ccco3)CN(S(=O)(=O)c3ccc(C)cc3)C[C@]1(O)C2	x	-4.0	-7%	i	x	x	-1.2
COc1cc(C(=S)N2CCOCC2)cc(OC)c1OS(=O)(=O)c1ccc(C)cc1	3.4	1.9	x	i	0.67	-0.6	-2.6
CCOC(=O)c1c(NC(=O)CCC(=O)N2CCOCC2)sc2c1CC(C)(C)OC2	0.3	x	-3%	x	0.66	1.6	2.3
COc1ccccc1NC(=S)N/N=C1\CC(C)(C)Oc2ccc(O)cc21	x	2.2	x	i	x	-1.7	0.7
CCCCNS(=O)(=O)c1ccc(OC)c2ncccc12	-14	x	-2%	x	0.71	5.2	0.8
CCOC(=O)C1=C(C)N(C)C(=O)NC1c1cccc([N+](=O)[O-])c1 (stereo not given)	0.8	-0.4	x	i	0.61	1.7	-4.3
CN1CCN(c2cc(-c3cc(O)c4ncccc4c3)ccn2)CC1	5.5	84*	x	i	0.65	x	3.2
Cc1ccc(/C=C/C(=O)O)cc1S(=O)(=O)NCCCC(=O)O	x	x	7%	x	0.68	0.8	-3.4
CC(=O)N/N=C/c1cc(C(C)C)cc(/C=N/NC(C)=O)c1O	x	1.6	-8%	i	x	-182	-39
O=C(O)CC(=O)Nc1ccccc1	1.3	x	-1%	x	0.72	1.2	0.7
COc1ccc(CCC(=O)OCC(=O)Nc2c(C)n(C)n(-c3ccccc3)c2=O)cc1	-1.7	-6.2	-13%	i	0.65	x	-3.0
Oc1ccc(C[C@H]2CNCCN2CCCCC2CCCCC2)cc1	0.6	x	x	x	x	-0.6	-1.0
Cc1ccnc(N2CCN(c3cc(C)c(C#N)c4nc5ccccc5n34)CC2)c1	-87	x	-4%	x	0.74	0.5	-1.6
CC(C)NC(=O)C1(C)CCN1Cc1ccc(Cl)cc1 (stereo not given)	x	-0.2	x	i	x	x	-0.6
CCCCn1c(Oc2ccc(C(=O)OC)cc2)nc2c1c(=O)n(C)c(=O)n2C	3.3	x	2%	x	0.69	1.9	1.4
c1ccc(OCc2nn3c(Cn4cnc5ccccc54)nnc3s2)cc1	2.4	x	-1%	x	0.66	3.2	1.4
CSc1nc(-c2cccs2)c(C#N)c(=O)[nH]1	x	-0.9	-94%	i	x	3.3	6.3
Cc1ccc(-c2csc(NCCn3c(-c4ccncc4)nc4ccccc43)n2)cc1	-1.3	-5.8	x	i	0.69	2.5	4.6
O=C(NCC(c1ccco1)N1CCN(c2ccc(F)cc2)CC1)c1ccco1 (stereo not given)	-0.5	4.7	-5%	i	0.7	2.0	3.0
CCOCCCNC(=O)c1cc2c(=O)n3ccccc3nc2s1	i	4.1	-4%	i	0.69	-3.3	1.9
COC(=O)[C@@]1(Cc2ccccc2)[C@H]2C(=O)N(C)C(=O)[C@H]2[C@H]2CN=C(SCC(=O)c3ccccc3)N21	2.1	2.0	0%	i	0.69	x	3.8
O=C(COc1ccccc1)N=C1SC2CS(=O)(=O)CC2N1c1ccccc1F (stereo not given)	2.5	-2.0	x	i	0.66	6.2	-4.7
CCCCCC(=O)Nc1cccc(C2=NOC3(C2)C[C@@H](C(N)=O)N(C(=O)c2ccc(Cl)cc2)C3)c1 (stereo not given in full)	-0.3	x	13%	x	x	-2.7	3.9
COc1ccc(-c2noc(CCCC(=O)NCC3CCCO3)n2)cc1 (stereo not given)	2.1	-0.4	x	i	0.7	-1.5	-2.8
CCOC(=O)c1c(-c2ccccc2)oc2ccc(OCC(N)=O)cc12	-117	3.0	x	i	0.72	0.1	2.5
COc1ccccc1-c1nnc(SCC(=O)NCc2cccs2)n1N	2.8	-2.2	-8%	i	0.65	-2.7	-2.0
O=C(NCCCN1CCOCC1)c1cc(-c2ccc(Br)cc2)on1	1.0	x	1%	x	0.7	7.0	-0.3
CN1CCN(C(=O)c2cccc(-c3cccc4nccn34)c2)CC1	x	0.0	x	i	x	x	-0.9
O=C(c1cccs1)N(Cc1ccccn1)Cc1ccco1	1.2	x	8%	x	0.75	-1.6	-0.9
CCCn1c(SC(C(=O)Nc2cccc(OC)c2)c2ccccc2)nc2ccccc2c1=O (stereo not given)	2.5	x	x	x	0.66	3.4	2.8
COc1ccc(CC(=O)OCC(=O)N(CC(C)C)c2c(N)n(Cc3ccccc3)c(=O)[nH]c2=O)cc1	5.2	6.3	1%	i	0.7	0.2	2.9
O=c1[nH]cnc2c([N+](=O)[O-])cccc12	3.3	x	21%	x	0.67	4.3	0.5
O=C(Cn1cc(C(=O)c2ccco2)c2ccccc21)NC1CCCCC1	-1.0	-1.6	-27%	i	0.7	-1.5	-0.2
CC(OC(=O)c1c2c(nc3ccccc13)/C(=C\c1ccc3c(c1)OCO3)CCC2)C(=O)Nc1ccc(S(N)(=O)=O)cc1 (stereo not given)	-289	x	2%	x	0.67	x	-90
Cc1nc(CNS(=O)(=O)c2cc(C)c(C)cc2C)cs1	2.0	x	-7%	x	0.75	1.2	-0.6
Fc1ccc(-n2nnc(-c3ccnc4ccccc34)n2)cc1	3.5	2.9	5%	i	0.72	4.7	2.1
COc1ccc(NC(=O)Nc2nc(C(N)Cc3ccc(C(F)(F)F)cc3)cs2)cc1 (stereo not given)	x	7.4	x	i	x	x	0.6
COc1ccccc1C(=O)NCCC(=O)NCC(c1ccccc1)N(C)C (stereo not given)	4.8	-0.9	x	i	0.72	-2.6	-4.0
CSc1ccc(C(=O)C2CCCN(C(=O)c3nonc3C)C2)cc1 (stereo not given)	5.6	-5.5	x	i	0.69	2.5	-3.6
COc1ccc(C(=O)OCC(=O)NC2CC2)cc1S(=O)(=O)Nc1ccc(C)cc1	1.1	1.3	-3%	i	0.68	x	-1.8
COc1ccc(CCNS(=O)(=O)c2ccc3c(c2)OCCO3)cc1OC	3.9	x	u	x	0.66	-2.3	1.4
COc1ccc([N+](=O)[O-])cc1NC(=O)c1cccnc1	x	-1.5	-1%	i	x	-2.5	0.3
O=S(=O)(c1cc(Cl)ccc1Cl)n1nnc2ccccc21	1.6	x	-2%	x	0.67	7.4	-0.2
COC(=O)c1c(N)c2ccccc2[nH]c1=O	-3.3	x	23%	x	0.69	1.7	3.2
O=C1C(=O)N(CCCn2ccnc2)C(c2ccc(Br)cc2)/C1=C(\O)c1ccc2c(c1)OCCO2 (stereo not given)	8.3	-2.3	-5%	i	0.68	4.6	-1.6
COc1ccc2nc(SCc3nc(N)nc(Nc4ccccc4)n3)[nH]c2c1	2.9	x	0%	x	0.69	-1.1	1.1
CCc1nc2c(OCc3ccc(F)c(F)c3)cccn2c1N(C)C(=O)C1CC1	x	2.5	x	i	x	x	3.0
CCC1Nc2ncnc(N3CCN(c4ccccc4)CC3)c2N(Cc2ccccc2)C1=O (stereo not given)	3.1	1.3&4.1	x	i	0.65	x	4.9&0.8
COCCOC1CCN(C(=O)C2CCC(=O)N(CCc3cccc(F)c3)C2)CC1 (stereo not given)	5.2	3.0	x	i	0.7	0.8	8.3
C=CCOC(=O)C1=C[C@H](c2csc3ccccc23)[C@@H](CCCO)[C@H](OCC)O1	-40	-1.9&-6.7	x	i	0.77	-2.3	2.7
Cn1c(COc2ccc(Cl)cc2)nnc1SCC(=O)NC1CC1	2.2	-0.3	8%	i	0.65	x	0.9

# More entries:
canonical_smiles	UCH37 DUB inh	MLL AF4-AF9 inh	Vif TR-FRET	FGF22 binding	E coli growth	RanGTP-Imp inh	HNF4A DNA FP
COC(=O)c1c(C(=O)OC)c(-c2cccc(Cl)c2)n2c1CS(=O)(=O)C2	6.5	-1.2	-2%	i	0.65	-0.3	1.8
O=C1CN(S(=O)(=O)c2ccc(F)cc2)c2ccccc2N1	x	-2.3	8%	i	x	3.6	-8.2
CC(C)(C)c1ccc(S(=O)(=O)N(CCCN2CCOCC2)Cc2cccs2)cc1	1.0&4.8	9.3	u	x	0.66&0.62	0.5	-3.0&-0.3
COCCCNC(=S)NCCCNc1nc2cc(C)cc(C)c2cc1C#N	-79	-1.2	0%	i	0.72	-8.8	-0.9
O=C(COC(=O)C1CCC1)Nc1ncc(Cl)cc1Cl	1.5	-7.2	x	x	0.61	-0.8	-4.9
CC1=C(C#N)C(=O)N(C)C(C)(C)C1	-0.2	x	76%	x	0.74	-3.6	-2.8
Cc1cccc(NC(=O)c2ccccc2OCC(=O)N2CCCC2)c1C	3.5	x	x	x	0.66	1.0	x
COc1ccc(NC(=O)Nc2ccc3c(c2)C(=O)N([C@H](C)CO)C[C@H](C)[C@@H](CN(C)C(=O)Nc2ccc(OC)cc2)O3)cc1	3.7	-5.1&7.1	x	i	x	x	-6.0
O=S(=O)(NCc1cn2ccsc2n1)c1cccs1	-1.4	x	81%	x	0.72	1.8	-1.2
CC1(C)CC(NC(=O)c2ccncc2)CC(C)(C)N1O	0.2	1.8	-5%	i	0.71	-1.9	0.8
CCc1ccc(NC(=O)CC2S/C(=N/N=C3CCCCCC3)NC2=O)cc1 (stereo not given)	1.6	-1.5	x	i	0.67	u	-2.8
C/C(=N\NC(=O)c1cccc(S(=O)(=O)N2CCCC2)c1)c1cccs1	x	1.7	-8%	i	x	-0.9	-0.2
O=C(C1CCCN(S(=O)(=O)c2ccc(Br)s2)C1)N1CCCCCC1 (stereo not given)	0.4	x	2%	x	0.75	4.9	1.7
CCOCCCNC(=O)CCC(=O)NNc1nc2ccccc2c2nc(C)nn12	-1.7	0.5	-8%	i	0.68	6.9	2.3
Cc1ccc(N(CC2CO2)S(=O)(=O)c2ccc([N+](=O)[O-])cc2)cc1 (stereo not given)	x	6.3	x	x	x	5.0	3.0
Cc1ccc(C2(c3noc(CN(C)Cc4cnn(C)c4)n3)CCCC2)cc1	3.1	0.8	2%	i	0.68	u	7.5

# The list is partial; rates above refer to the full screens.
